ugtP null kill – growth inhibition of ugtP-null S. aureus, primary screen, RN4220 ugtP deletion, OD600. 16 h; some inactives read as strong as hits. growth inhibition, % (concentration not given with the values). 0.54% of 330,000 active. AID 1259309, 2017;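 active = z-score under -3 and OD600 up to 0.15 on both plates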;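 also: plate controls were untreated wells for no effect and antibiotic for full effect; wells of about 80 µL received 100 nL stock; the first replicate is given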
Sa RN4220 lethal – growth inhibition of S. aureus RN4220, primary screen, OD600; 16 h; inhibition, % (concentration not given with the values); 0.33% of 330,000 active; AID 1259311, 2017;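 active = z-score of -3 or lower and OD600 up to 0.18 on both plates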;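 also: plate controls were untreated cells for no effect and reference antibiotic for full effect; stock transfer was 100 nL into about 80 µL; one replicate is shown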
Bead autofluor – compound fluorescence in toxin protease inhibitor counterscreen. 3.1% of 360,000 active. fluorescence intensity (test concentration not listed). compound autofluorescence counterscreen, microsphere flow cytometry; active compounds read high. AID 624483;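 active = at least 3 SD above the mean of all compounds, about 16000 in these data; inconclusive = too few beads counted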;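 also: 100 nL of 1 mM stock went into each well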
Mtb hypoxia inh – PubChem AID 1159583; M. tuberculosis hypoxia-regulated fluorescent reporter, fluorescence; fluorescence inhibition, % (no concentration beside the values); 0.1% of 300,000 active;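 active = 35 to 45% if threefold the growth effect, above 45% if 1.5-fold the growth effect; inactive = the rest, general growth blockers included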;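 also: wells of about 50 µL received 100 nL stock; 0% = vehicle wells and 100% = reference inhibitor wells; whole bacteria with a GFP reporter of the hypoxia response; strong numbers were not always called active; many hits fall short of the cut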
PrP 5UTR inh – inhibition of PrP 5' UTR reporter expression. inhibition, % (no concentration beside the values). cell-based PrP 5' UTR mRNA reporter, plate reader. AID 488862, 2010. 0.35% of 340,000 active;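 active = every replicate at 50% or more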;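 also: 0 = median of the neutral control wells; tested in H4 reporter cells; numbers are from one replicate; inactives centre near -14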
BJeLR viability – MLPCN primary cell-based screen for lethality selective to Ras in HRASV12 cells | BJeLR (HRASV12) viability, CellTiter-Glo ATP luminescence, 48 h; reference of the scale not given here | inhibition, % (concentration not given with the values) | 0.17% of 300,000 active | AID 1554, 2009;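 active = replicate mean above 50%; inconclusive = above 50% but judged a plate artefact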;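 also: 50 nL library stock added to about 25 µL; numbers are from one replicate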
Mtb hypoxia inh growth – also measured in Mtb hypoxia inh; calls as there; growth inhibition, %; measured here: M. tuberculosis growth (absorbance);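 0% = vehicle and 100% = reference antibiotic; read after six days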
Numbers without * were called inactive; ? = inconclusive; / = no result given.

Below each SMILES – ugtP null kill | Sa RN4220 lethal | Bead autofluor | Mtb hypoxia inh | Mtb hypoxia inh growth | PrP 5UTR inh | BJeLR viability
(1) CCOC(=O)C1=C2SCC(=O)N2C(N)=C(C#N)C1
 : -4 | -2.7 | / | 12 | -1 | -15 | 2
(2) O=C(Cc1ccc(F)cc1)OCn1nnc2ccccc2c1=O
 : -1 | 1.9 | 4255 | 0 | 3 | -2 | -9
(3) COc1cc(CC(=O)OC2CCOC2=O)cc(OC)c1OC (configuration not stated)
 : 2 | 2.8 | 10313 | -3 | 3 | 4 | -7
(4) COc1cccc(/C=N/n2c(N)c(S(=O)(=O)c3cccs3)c3nc4ccccc4nc32)c1OC
 : / | / | 16852* | / | / | 4 | -2
(5) COc1ccccc1NC(=O)c1cccc(NC(=O)c2ccco2)c1
 : -10 | 5.7 | 4258 | / | / | -18 | -5
(6) CN(C)S(=O)(=O)c1ccc(-c2csc(NN=Cc3ccco3)n2)cc1
 : 16 | 7.3 | / | 7 | 2 | / | /
(7) CCC(C)n1ncn(-c2ccc(N3CCN(c4ccc(OC)cc4)CC3)cc2)c1=O (configuration not stated)
 : -2 | 3.4 | 6592 | -5 | 1 | -17 | -1
(8) CNc1cc(-n2nc(C)cc2-c2ccccc2)ncn1
 : 6 | -1.3 | 3370 | / | / | -115 | -6
(9) C=C1CCC[C@]2(C)C[C@H]3OC(=O)C(CN4CCCCC4CO)[C@H]3CC12 (some centres not stated)
 : 9 | -0.8 | 3291 | 13 | 8 | -12 | 8
(10) CCCN(CC(=O)Nc1ccccc1OC)C(=O)Cc1ccc2c(c1)CCC2
 : -10 | -1.4 | ? | -4 | 5 | -11 | /
(11) COc1cc(C(=O)NCc2ccc(C)cc2)ccc1OC(F)F
 : 0 | -4.4 | 2222 | 9 | 13 | -11 | -6
(12) Fc1ccc(CNC(=S)Nc2cccc(Cl)c2)cc1
 : -29 | -5.9 | 2989 | 2 | 17 | -5 | -2
(13) CCCCC(=O)C1=C(N2CCCC2)CC(C)(C)CC1=O
 : 2 | 6.7 | 4514 | -85 | -7 | -23 | 1
(14) COc1ccc(OC)c(Cc2nnc(CCC(=O)NC3CCCC3)o2)c1
 : 8 | -1.2 | 2023 | 1 | -1 | 0 | 3
(15) CCCN1CCN(C(=S)Nc2sc(CC)cc2C(=O)OC)CC1
 : -5 | 2.8 | 5054 | 7 | 9 | -21 | /
(16) Clc1ccc2nc(CSc3nncn3-c3ccccc3)cn2c1
 : 2 | 5.2 | 10252 | 6 | 11 | -8 | -4
(17) Cc1nn(C)cc1CNC(=O)Nc1ccc(Cl)cc1
 : -11 | -6.8 | 3944 | 4 | 0 | -29 | -4
(18) CC(C)(C)OC(=O)CC1(C#N)c2ccccc2C(Br)=CN1C(=O)c1ccccc1 (configuration not stated)
 : 12 | 7.3 | 4157 | 10 | 8 | -24 | -1
(19) CCOc1ccccc1CN(Cc1ccco1)S(=O)(=O)c1ccc(-n2cnnn2)c(OC)c1
 : -9 | 7.1 | 6110 | 3 | 10 | -14 | -10
(20) COc1ccccc1NC(=O)c1nn(-c2ccc(OC(F)(F)F)cc2)ccc1=O
 : 2 | 0.2 | 2661 | / | / | 21 | -2

(list continues)
Below each SMILES – ugtP null kill | Sa RN4220 lethal | Bead autofluor | Mtb hypoxia inh | Mtb hypoxia inh growth | PrP 5UTR inh | BJeLR viability
(21) COc1ccccc1NCC(=O)NN=Cc1sccc1C
 : -2 | 3.8 | / | -2 | -6 | / | /
(22) Cn1cccc1/C=N/NC(=O)Cc1ccccc1
 : / | / | 3881 | / | / | -25 | 2
(23) O=C(Nc1cc([N+](=O)[O-])ccc1N1CCCC1)c1ccccc1
 : 6 | 7.6 | 4138 | -1 | 6 | 4 | -4
(24) COc1ccccc1Cn1c(CCCO)nc2ccccc21
 : 0 | 2.9 | 2826 | / | / | -8 | -7
(25) Cc1ccc2c(c1)N(C(=O)CCC(=O)NCc1cccc(Br)c1)CC(C)O2 (configuration not stated)
 : 0 | -0.7 | 4498 | 7 | 2 | 4 | -2
(26) CCc1noc(C)c1C(=O)Nc1cc(S(=O)(=O)N(CC)CC)ccc1N1CCCC1
 : 12 | 6.9 | 6061 | 6 | 7 | -22 | -6
(27) O=C(COc1ccccc1C(=O)c1cnn(-c2ccccc2)c1)Nc1ccccc1
 : -8 | -0.6 | 1951 | -2 | 7 | -68 | -8
(28) CN(C)S(=O)(=O)c1ccc(Cl)c(NC(=O)CN2CCN(c3ccccn3)CC2)c1
 : 5 | 2.3 | 2817 | -2 | 4 | / | -3
(29) C=C(c1ccc(O)cc1)c1ccc(O)cc1
 : 11 | -15 | 4235 | / | / | -28 | -4
(30) COc1cc(C2C(C#N)=C(N)Oc3n[nH]c(C)c32)ccc1OC(=O)c1ccccc1 (configuration not stated)
 : 5 | 2.7 | 13549 | 1 | 7 | -14 | -3
(31) COCCOC1CCN(C(=O)c2cc(COc3ccc(-n4cncn4)cc3)on2)CC1
 : 6 | -0.8 | 5450 | 13 | -7 | -30 | 10
(32) O=C(CN1C(=O)NC2(CCCCCC2)C1=O)Nc1ccc(S(=O)(=O)N2CCOCC2)cc1
 : -7 | -3.3 | 2913 | -2 | 16 | -12 | 3
(33) COc1cc2c(cc1OC)CN(S(=O)(=O)/C=C/c1ccccc1)CC2
 : 5 | 3.3 | 3399 | 9 | 6 | -15 | 3
(34) S=C(NCc1ccco1)N1CCN(c2ccccc2Cl)CC1
 : / | / | 4538 | / | / | -4 | 2
(35) Brc1ccc(-c2cn3cccnc3n2)cc1
 : -3 | 3.5 | 8322 | 5 | 8 | -40 | /
(36) O=C(NC12CC3CC(CC(C3)C1)C2)N1CCN(C2CCCCC2)CC1
 : 2 | 1.7 | 4450 | 11 | 3 | -2 | 4
(37) CN1C(=O)c2ccccc2C(C(=O)NCCCN2CCCC2=O)C1c1c[nH]c2ccccc12 (configuration not stated)
 : -3 | 4.6 | / | / | / | / | -6
(38) COc1ccc(C(=O)COC(=O)CCN2C(=O)[C@@H]3[C@H](C2=O)[C@@H]2C[C@H]3C(Br)C2Br)cc1 (some centres not stated)
 : 7 | 4.9 | 9742 | 8 | -2 | -11 | 2
(39) Cc1ccccc1NC(=O)CSC(N)=O
 : 7 | -3.0 | 2580 | / | / | -23 | -4
(40) CCCNC(=O)C1(S(=O)(=O)c2ccccc2)CC=CC1
 : 5 | 8.3 | 3585 | 19 | 2 | -18 | -10

(further entries)
Below each SMILES – ugtP null kill | Sa RN4220 lethal | Bead autofluor | Mtb hypoxia inh | Mtb hypoxia inh growth | PrP 5UTR inh | BJeLR viability
(41) COc1ccc(/C=C/c2nc3ccccc3c(=O)n2-c2cccc(C(=O)O)c2)cc1
 : 84 | 92* | 3824 | 2 | -1 | -8 | -3
(42) COCCN1C(=O)N[C@@H](c2ccco2)C(C(=O)OC)=C1C
 : / | / | 4015 | / | / | -3 | 4
(43) C/C(=N\N=c1/sc2ccccc2n1C)c1ccc(N2CCOCC2)cc1
 : / | / | 4751 | / | / | -67 | 0
(44) O=C(NC1CCCCC1)c1ccc(CS(=O)(=O)c2ccc(Cl)cc2)o1
 : 6 | 1.9 | 6002 | 0 | 0 | -4 | -8
(45) O=C1S/C(=C\c2ccc(O)c([N+](=O)[O-])c2)C(=O)N1c1ccccc1Cl
 : / | / | 4269 | / | / | -29 | 14
(46) CCc1ccc(NC(=O)CSc2ccc(-c3sc(C)nc3C)nn2)cc1
 : 5 | 2.2 | 5955 | 14 | 13 | -34 | -4
(47) Cc1cc(C2=NNC(=NC3CC3)SC2)c(C)n1Cc1ccco1
 : -5 | 3.3 | 2155 | -1 | 8 | 88* | /
(48) C/C=C(\C)CN1CCC(n2nccc2NC(=O)CCOc2ccccc2)CC1
 : 7 | 2.3 | 4297 | 3 | 3 | 1 | -5
(49) O=C(Cc1ccccc1)NCC(=O)OCC(=O)c1ccc([N+](=O)[O-])cc1
 : -2 | -0.3 | 2510 | 0 | 5 | -29 | -14
(50) Cc1ccc(S(=O)(=O)c2ccc(Cl)cc2)cc1S(=O)(=O)N(C)CC(=O)O
 : 5 | 5.3 | 1964 | 8 | 3 | -4 | -4
(51) C=C1N(c2ccccc2)C(=O)OC1(C)C
 : 6 | 1.6 | 1996 | 8 | -3 | -10 | -9
(52) Cc1ccc(C(=O)N(Cc2nc(-c3ccc(C)cc3)no2)C(C)C)cc1
 : -2 | -4.1 | 5927 | / | / | -26 | 3
(53) COc1ccc(C(CC(=O)O)NS(=O)(=O)c2ccc(C)cc2)cc1 (configuration not stated)
 : 13 | 5.7 | 8283 | 13 | 8 | 7 | -5
(54) CN(C)/C=N/c1cc(=O)n(C)c(=O)n1Cc1ccccc1
 : / | / | 3959 | / | / | -10 | -1
(55) COc1ccccc1CN(C)S(=O)(=O)c1cccs1
 : / | / | 5130 | / | / | -59 | -6
(56) COCCN(CCOC)C(=O)c1ccc(SCc2ccc(C)cc2)c([N+](=O)[O-])c1
 : 12 | 2.6 | 4404 | 4 | -2 | -19 | 0
(57) CCOCCCNC(=O)C1CCC(CNS(=O)(=O)c2ccc(F)cc2)CC1 (configuration not stated)
 : 8 | -0.3 | 4638 | / | / | -18 | 0
(58) O=C(Nc1ccccn1)C1CCN(S(=O)(=O)c2ccc3c(c2)OCCCO3)CC1
 : 1 | -1.6 | 5474 | -11 | -1 | -2 | 3
(59) Cc1ccc(-c2nnc3sc(CCc4ccccc4)nn23)cc1
 : -3 | 12 | 12056 | 25 | 27 | -19 | -9
(60) CCOC(=O)c1c(C)[nH]c(C)c1C(=O)COC(=O)c1cccc(S(=O)(=O)NC)c1
 : 1 | 1.7 | 4331 | 11 | 8 | -12 | 7

(continued)
Below each SMILES – ugtP null kill | Sa RN4220 lethal | Bead autofluor | Mtb hypoxia inh | Mtb hypoxia inh growth | PrP 5UTR inh | BJeLR viability
(61) COc1ccccc1CN(C(=O)c1cnccn1)C(C(=O)NC1CCCCC1)c1cc(OC)c(OC)c(OC)c1 (configuration not stated)
 : / | / | 3885 | / | / | -23 | 0
(62) O=C(CNC(=O)c1ccco1)OCc1ccc(C(=O)Oc2ccccc2)cc1
 : 1 | 2.9 | 3854 | / | / | -7 | 4
(63) COCCn1cc(C(=O)N2CCC(C)CC2)c2c3ccccc3n(C)c2c1=O
 : -7 | -2.9 | 9563 | 2 | -11 | -8 | 3
(64) Cc1cccc(NC(=O)C(C)N2C(=O)C3C4CC(C(Br)C4Br)C3C2=O)c1 (configuration not stated)
 : -11 | 4.8 | 4375 | -1 | 1 | -13 | -8
(65) CSc1nc(NNC=O)cc(Oc2ccc(NC(C)=O)cc2)n1
 : 4 | 3.7 | 3670 | 6 | -3 | -27 | -8
(66) Cn1c(=O)c2c(ncn2CC(=O)OCC(=O)NCCc2ccccc2)n(C)c1=O
 : 3 | -0.6 | 5781 | 4 | 11 | -10 | /
(67) Cc1ccc(C(=O)Nc2ccccc2C(=O)N2CCCC2)cc1[N+](=O)[O-]
 : 12 | 2.8 | 2555 | 8 | 3 | -48 | 5
(68) Nc1c2c(nc3ccccc13)N(C1CCCCC1)CC2
 : -6 | 2.9 | / | / | / | -3 | 3

Grouped by structure: the entries above with a Cl atom.
Below each SMILES – ugtP null kill | Sa RN4220 lethal | Bead autofluor | Mtb hypoxia inh | Mtb hypoxia inh growth | PrP 5UTR inh | BJeLR viability
(12) Fc1ccc(CNC(=S)Nc2cccc(Cl)c2)cc1
 : -29 | -5.9 | 2989 | 2 | 17 | -5 | -2
(16) Clc1ccc2nc(CSc3nncn3-c3ccccc3)cn2c1
 : 2 | 5.2 | 10252 | 6 | 11 | -8 | -4
(17) Cc1nn(C)cc1CNC(=O)Nc1ccc(Cl)cc1
 : -11 | -6.8 | 3944 | 4 | 0 | -29 | -4
(28) CN(C)S(=O)(=O)c1ccc(Cl)c(NC(=O)CN2CCN(c3ccccn3)CC2)c1
 : 5 | 2.3 | 2817 | -2 | 4 | / | -3
(34) S=C(NCc1ccco1)N1CCN(c2ccccc2Cl)CC1
 : / | / | 4538 | / | / | -4 | 2
(44) O=C(NC1CCCCC1)c1ccc(CS(=O)(=O)c2ccc(Cl)cc2)o1
 : 6 | 1.9 | 6002 | 0 | 0 | -4 | -8
(45) O=C1S/C(=C\c2ccc(O)c([N+](=O)[O-])c2)C(=O)N1c1ccccc1Cl
 : / | / | 4269 | / | / | -29 | 14
(50) Cc1ccc(S(=O)(=O)c2ccc(Cl)cc2)cc1S(=O)(=O)N(C)CC(=O)O
 : 5 | 5.3 | 1964 | 8 | 3 | -4 | -4

Compound activity from PubChem BioAssay.
